Bioassay records from PubChem.
KCNQ2 pot: potentiators of rat KCNQ2 potassium channel; Potassium voltage-gated channel subfamily KQT member 2 (Rattus norvegicus), O88943; CHO-K1 KCNQ2, FluxOR thallium flux fluorescence; stronger effect = higher value; B-score at 10 µM; 0.54% of 310,000 active; AID 2239, 2010;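 active = fluorescence ratio B-score at least 3 SD of library B-scores, with initial fluorescence B-score within 3 SD, cut at about 5.3 in these data; same plate scores as AID 2156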;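 note: B-score of peak minus minimum over baseline fluorescence ratio after K+ and Tl+ stimulus; positive B-score means potentiation of KCNQ2 with more thallium influx and brighter signal; only the inactives scoring about 0 or higher are listed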
Target sequence (O88943 whole entry, looked up): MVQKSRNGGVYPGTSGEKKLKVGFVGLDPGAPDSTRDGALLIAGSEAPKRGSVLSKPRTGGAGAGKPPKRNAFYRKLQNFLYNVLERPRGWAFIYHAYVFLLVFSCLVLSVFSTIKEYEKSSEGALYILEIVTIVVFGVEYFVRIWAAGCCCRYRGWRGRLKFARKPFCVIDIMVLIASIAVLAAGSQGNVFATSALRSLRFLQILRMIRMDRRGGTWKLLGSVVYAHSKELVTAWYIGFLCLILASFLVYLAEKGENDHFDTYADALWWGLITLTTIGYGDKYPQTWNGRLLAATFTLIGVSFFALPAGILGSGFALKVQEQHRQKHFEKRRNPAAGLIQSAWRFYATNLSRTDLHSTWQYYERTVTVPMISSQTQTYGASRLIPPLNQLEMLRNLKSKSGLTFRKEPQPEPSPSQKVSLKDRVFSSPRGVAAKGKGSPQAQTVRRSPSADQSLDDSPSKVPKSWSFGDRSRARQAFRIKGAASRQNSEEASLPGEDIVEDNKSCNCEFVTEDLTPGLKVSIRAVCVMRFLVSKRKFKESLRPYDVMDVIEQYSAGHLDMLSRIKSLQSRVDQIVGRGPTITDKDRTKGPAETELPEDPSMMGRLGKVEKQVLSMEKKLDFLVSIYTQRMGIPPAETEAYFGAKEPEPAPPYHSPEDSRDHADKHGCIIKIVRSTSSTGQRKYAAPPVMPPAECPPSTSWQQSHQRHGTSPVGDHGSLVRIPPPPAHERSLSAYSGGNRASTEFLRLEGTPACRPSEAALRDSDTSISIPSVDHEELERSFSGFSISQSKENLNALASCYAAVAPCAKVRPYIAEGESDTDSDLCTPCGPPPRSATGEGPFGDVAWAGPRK
KCNQ2 pot baseline: second read-out of KCNQ2 pot, no call of its own (marks repeat the call); B-score; compound at 10 µM; measured here: initial fluorescence intensity artifact check;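 brightness before thallium and not channel activity; 0 = typical well and far values either way flag optical interference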
* hit, by the source's call.

Start of the data: the first four records as a preview:
SMILES	KCNQ2 pot	KCNQ2 pot baseline
NC(=O)C(c1ccccc1)C1CCCCC1 (configuration not stated)	1.3	1.6
COc1ccc(-n2nc3c(N4CCC(C(=O)N5CCCCCC5)CC4)nnc(C)c3c2C)cc1	1.1	-1.3
Cn1nc(C(=O)Nc2cccc(C(F)(F)F)c2)c2ccccc2c1=O	0.52	1.2
O=S(=O)(NCc1cc(-c2ccccc2)no1)c1ccccc1Cl	0.01	-0.09

All compounds of this part (from the top)
SMILES	KCNQ2 pot	KCNQ2 pot baseline
NC(=O)C(c1ccccc1)C1CCCCC1 (configuration not stated)	1.3	1.6
COc1ccc(-n2nc3c(N4CCC(C(=O)N5CCCCCC5)CC4)nnc(C)c3c2C)cc1	1.1	-1.3
Cn1nc(C(=O)Nc2cccc(C(F)(F)F)c2)c2ccccc2c1=O	0.52	1.2
O=S(=O)(NCc1cc(-c2ccccc2)no1)c1ccccc1Cl	0.01	-0.09
O=C(CSc1nc(-c2ccco2)cc(C(F)(F)F)n1)NC1CCCCCCC1	0.75	-0.98
COc1ccc(Cc2nnc(NC(=O)c3c(-c4ccccc4)noc3C)s2)cc1OC	0.85	-0.03
CCCCN(C(=O)CSc1nnc(Nc2ccccc2)s1)c1c(N)n(CCC)c(=O)[nH]c1=O	1.3	2.8
CCc1ccccc1NC(=S)N(CCN1CCOCC1)C1CCN(C(C)=O)CC1	0.65	-1.8
CSC(=NNC(=O)c1ccccc1O)SC	1.9	-0.48
CC(Cc1ccccc1)NC(=O)CCCN1C(=O)c2ccccc2C1=O (configuration not stated)	1	1.6
CSc1cccc(NC(=O)CN(C)S(=O)(=O)c2ccccc2)c1	0.81	-0.74
CCN(CC(=O)Nc1ccc(OC)cc1)CC(=O)Nc1cccc(C#N)c1	0.75	0.94
COc1ccccc1N(CC(=O)NCCSC(C)(C)C)S(C)(=O)=O	2.5	-0.79
Cc1ccc(C(=O)NCCNC(=O)COc2ccc(Cl)cc2)cn1	0.38	0.54
COc1cc(CN(C(=S)NCC(=O)NC2CC2)C2CCCC2)cc(OC)c1OC	1.1	-0.11
COc1cccc(/C=N/NC(=S)Nc2cccc(C(=O)O)c2)c1	1.4	-0.94
O=C(CN1C(=O)C2C3C=CC(C3)C2C1=O)NCc1ccccc1 (configuration not stated)	0.02	0.16
CC(C)(C)NC(=O)CN(C(=O)C1(C)CC(=O)N=C2C=CC=CN21)C1CCCC1 (configuration not stated)	0.08	0.64
O=C(COC(=O)C1CCCO1)Nc1cccc(C(F)(F)F)c1 (configuration not stated)	0.53	-0.26
CC(C)C1O/C(=N/C(=O)Nc2ccc(Cl)c(Cl)c2)NC1=O (configuration not stated)	0.92	-0.73
O=C(c1ccco1)N1N=C(c2cccs2)CC1c1ccco1 (configuration not stated)	0.59	1.1
Cn1ncc2c(O/N=C(\N)c3ccc(C(F)(F)F)cc3)ncnc21	6*	-1.7*
O=C(C1CCC1)N1CCc2cc(S(=O)(=O)NCCCN3CCCCC3)ccc21	0.08	-1
CCOC(=O)C(NC(C)=O)(OCc1ccc(F)cc1)C(F)(F)F (configuration not stated)	0.93	0.36
COc1ccc(-n2c(SCC(=O)/C(C#N)=C(\C)N)nc3ccccc3c2=O)cc1OC	0.95	-0.2
Cc1ccc(S(=O)(=O)NCCC(=O)NC2CCCC2)cc1	2.3	0.28
COc1ccc2occ(NC(C)=O)c2c1	0.66	1.2
CCn1c(-c2ccccn2)nc2cc(S(=O)(=O)N(C)C)ccc21	0.68	-0.8
CN(C)S(=O)(=O)c1cc(NC(=O)COC(=O)Cc2ccc(Br)cc2)ccc1Cl	0.3	-0.29
CCOc1ccc(/C=C2\SC(=S)N(C)C2=O)cc1OC	0.41	-0.29
C[C@H](NS(=O)(=O)c1ccccc1F)C(=O)OCC(=O)N1CCc2ccccc21	1	0.9
Cn1c(N)c(C(=O)COC(=O)c2cc(S(=O)(=O)N3CCCCC3)ccc2Cl)c(=O)n(C)c1=O	0.12	0.01
Cc1ccc(CNC(=O)C(=O)NCCC2=CCCCC2)cc1	1.1	-0.79
Cn1cccc1Cc1nnc(SCC(=O)N2CCOCC2)n1CCc1ccccc1	1.6	0.52
O=C(CNS(=O)(=O)c1ccc(Br)cc1)NCc1ccncc1	0.2	-0.12
Cc1cccc2cc(COC(=O)C3CCCCC3)c(=O)[nH]c12	1.3	2.1
CCOC(=O)c1ccc(NC(=S)NC(=O)C2CCCC2)cc1	0.02	-0.62
COc1cc(NC(=O)C2CCCCC2)c(OC)cc1NC(=O)c1ccco1	0.75	-0.59
Cc1ccc(-n2ncc(-c3nn[nH]n3)c2N)cc1	1.9	-0.17
COC(=O)c1ccc(NC(=O)c2cc[n+]([O-])cc2)cc1	0.49	-1.3
CCCCNC(=O)NC1(C(F)(F)F)Oc2ccccc2O1	1.5	2.1
COc1cccc(C2(O)CCN(C(=O)c3cccs3)CC2)c1	1.2	0.82
O=C(CN1C(=O)/C(=C/c2cccc(Br)c2)SC1=S)Nc1cccnc1	0.21	0.63
O=C(N/N=C/c1c(Cl)cccc1Cl)c1ccccc1F	0.01	2
CC(C)(C)c1ccc(C(=O)Nc2ccc(C=C(C#N)C#N)cc2)cc1	1.2	0.03
CCc1ccc(NC(=O)CNC(=O)[C@@H]2Cc3ccccc3CN2C(=O)OC(C)(C)C)cc1	0.14	0.12
Cc1nnc(SCc2cc([N+](=O)[O-])cc3c2OCOC3)n(N)c1=O	0.51	-2.1
Cc1ccc2nc(SCC(=O)N3CC(C)OC(C)C3)nc(=O)n2c1 (configuration not stated)	0.31	-1.4
S=C1NCCNC(=S)NCCOCCOCCOCCN1	0.59	1.6
O=C(NNC(=O)C1CCCO1)c1ccc(Br)cc1 (configuration not stated)	1.6	-1.9
CCN(CC)S(=O)(=O)c1ccc(-c2nnc(SCC(=O)Nc3ccc(OC)c(OC)c3)o2)cc1	2.2	-0.36
Cc1nn2c(nc1=O)SCC(c1ccccc1)=N2	0.97	-0.54
CCOC(=O)c1[nH]nc(-c2c(O)cc(C)cc2O)c1-c1csc(C)n1	2.7	-0.02
COc1ccc(OC)c(-c2cc(C(=O)Nc3c(C)n(C)n(-c4ccccc4)c3=O)no2)c1	0.8	2.6
CCC(C(=O)Nc1cc(C)on1)c1ccccc1 (configuration not stated)	0.02	-1.4
COc1ccc(N(CC(=O)Nc2cc(Cl)ccc2C)S(=O)(=O)c2c(C)n[nH]c2C)cc1	0.01	0.17
O=Cc1c(NCCc2ccc(F)cc2)c2ccccc2[nH]c1=O	0.55	0.1
Cc1ccc(/C=N\NC(=O)c2csnn2)cc1	2	3.8
CC(=O)OC(C[N+]1(C)CCCCCC1)c1ccccc1 (configuration not stated)	0.71	-0.71
c1ccc(C2COC(c3cccs3)=N2)cc1 (configuration not stated)	0.87	-0.23
More structures follow:
SMILES	KCNQ2 pot	KCNQ2 pot baseline
CS(=O)(=O)N(Cc1ccc(C(=O)NCCSCc2ccco2)cc1)c1ccccc1	1.3	-1.3
CC1=C(/C=C/C(=O)O)C(C)(C)CCC1	0.54	0.9
CC1CCN(S(=O)(=O)c2ccccc2[N+](=O)[O-])CC1	0.39	1.4
CC1(C)C(=O)OC(c2ccco2)C(C)(C)C1=O (configuration not stated)	1.3	-0.02
CCOc1ccc(S(=O)(=O)N2CCN(Cc3ccc4c(c3)OCO4)CC2)cc1OCC	0.21	1.4
COc1ccc2cc3cc(C(=O)NCCCN4CCC(C)CC4)oc3nc2c1	0.73	1.4
Cn1c(=O)c2c(ncn2CC(=O)N/N=C/C(Br)=C/c2ccccc2)n(C)c1=O	0.67	0.02
O=Nc1ccc(NOC(=O)c2ccccc2)cc1	2.9	-2.1
O=C(N/N=C/c1cccc2ccccc12)c1cccc(F)c1	0.66	0.42
COc1ccc(CCNC(=O)C(CC(C)C)NC(N)=O)cc1 (configuration not stated)	0.06	-0.01
CCOc1ccc(OCC)c(NC(=O)C2CCN(S(=O)(=O)c3cccnc3)CC2)c1	0.08	-2.8
CCN(CC)C(=O)Cn1cc(SCC(=O)NCc2ccco2)c2ccccc21	0.24	-1.8
O=C(OCC(=O)N1CCCc2ccccc21)C1CCN(S(=O)(=O)c2cccs2)CC1	0.02	-0.67
O=C(O)c1c(F)c(F)c(F)c(F)c1-c1ccc(Cl)cc1	0.97	0.57
N/C(=N\OC(=O)c1cccc(Br)c1)c1ccc([N+](=O)[O-])cc1	0.04	0.78
C=CCN1CN=C(NS(=O)(=O)c2ccc(NC(C)=O)cc2)NC1	0.59	0.02
Cc1nnc(-c2cccc(Br)c2)c2cn(-c3ccccc3)nc12	1.4	-0.02
Cc1nc(SCC(=O)c2ccc(Cl)s2)c2oc3ccccc3c2n1	0.9	0.11
Cc1ccc(S(=O)(=O)N2CCC3(CC2)CC(=O)c2ccccc2O3)cc1	2.2	1.1
CC1CCN(C2=NC(=O)/C(=C/c3ccc(O)cc3)S2)CC1	0.21	-0.16
O=C(CNC(=O)c1ccccn1)N/N=C/c1ccc2c(c1)OCO2	0.87	-1.4
COc1cccc(NC(=O)CN2CCCCCC2)c1	0.52	2.6
COC(=O)CCC(=O)Nc1ccc(Cl)c(Cl)c1	0.12	0.2
CCCc1cc(=O)oc2cc(OCC(=O)NC3CC(C)(C)NC(C)(C)C3)ccc12	1.3	0.72
CCn1ncc(/C=C/C(=O)Nc2c(C)nn(Cc3ccc(Cl)cc3Cl)c2C)c1C	1.8	0.28
O=C(NCCc1ccccc1)C(NS(=O)(=O)c1cccc2nsnc12)c1ccccc1 (configuration not stated)	0.88	-1.3
Cn1c(SCC(=O)NC2CCCCC2)nnc1-c1ccccc1F	0.07	-0.79
Cc1nc2c(C(=O)NCc3cccs3)cnn2c(C)c1Cc1ccccc1	0.11	-3
Cc1cccc2cc(CN(CC3CCCO3)C(=O)c3ccco3)c(=O)[nH]c12 (configuration not stated)	0.68	-0.07
CC(=O)NCCc1nc2ccccc2n1Cc1cc(C)ccc1C	0.82	0.68
CCCn1c(CCc2ccccc2)n[nH]c1=S	0.98	0.57
COc1ccccc1C(=O)N/C(=C/c1ccc(Br)cc1)C(=O)NCCO	1.9	-1
Cc1ccc(C(=O)Nc2ccncc2)c(C)c1	1	-0.27
COc1ccc(CNC(=O)C2CCCN2C(=O)NC2CCCCC2)cc1 (configuration not stated)	0.09	0.04
COc1ccc(/C=N/NC(=O)Nc2cccc3nsnc23)cc1OC	0.98	1.1
Cc1ccccc1NC(=O)Cc1cccs1	0.17	-0.73
Cc1ccccc1Cn1cc(CCC(=O)N2CCOCC2)c2ccccc21	0.23	-0.34
COC(C/C=C/[C@H](O)COCc1ccccc1)OC	0.29	0.63
COc1ccc(NC(=O)CN(C)C(=O)CCc2nc3cc(S(=O)(=O)N4CCOCC4)ccc3n2C)cc1	0.99	0.36
CC(=O)c1cccc(-n2nnnc2SCC(=O)NNC(=O)C2CCCCC2)c1	1.4	0.48
Cc1ccc(Cl)cc1NC(=O)CC(O)(C(F)(F)F)C(F)(F)F	2.3	-0.27
CC1(C)N=C(N)N=C(N)N1c1ccc(F)cc1F	0.14	0.36
CCn1cc(CNC(=O)c2cc(-c3cc(OC)ccc3OC)nc3ccccc23)c(C)n1	0.78	-0.01
CCN(CC)CCN(C(=O)c1ccc(N2C(=O)CCC2=O)cc1)c1nc2cc3c(cc2s1)OCCO3	0.92	-0.12
CCN(CC)S(=O)(=O)c1ccc(/C(O)=C(\C#N)c2nc3ccccc3n2C)cc1	2.4	-0.8
Cc1cc(C(C)(C)C)cc(S(=O)(=O)NCCO)c1C	1.7	-0.25
CCCCN1CC[C@H]2C=CC[C@@H](C(=O)NCCc3ccccc3)[C@H]2C1=O	1	-1
CN(C(=O)c1ccccc1C(=O)OCC(=O)NCc1ccccc1)C1CCCCC1	0.39	-0.77
O=C(Nc1cccn(Cc2ccc(F)cc2)c1=O)NC1CCCCC1	0.28	-0.52
CC(=O)NC(CC(=O)OCC(=O)NCCc1ccccc1)c1ccccc1 (configuration not stated)	0.47	-1.8
CSc1nsc(SCC(=O)Nc2ccc(Br)cn2)n1	0.84	-1.3
COc1cccc(/C=N/c2nc3ccccc3[nH]2)c1O	0.03	-0.14
CC(C)/C=N\NC(=O)CCCCC(=O)N/N=C/C(C)C	1.3	-0.17
COc1ccc(/C=C2/SC(=S)N(CCCC(=O)N3CCN(C)CC3)C2=O)cc1	1.1	1.6
COCCN(CC1CCCN(C2Cc3ccccc3C2)C1)C(=O)CCSC (configuration not stated)	1.1	-0.77
CC/C(=C1/C(=O)CC(C)(C)C(C(=O)OC)C1=O)N1CCCC1 (configuration not stated)	0.72	0.54
COc1ccc(NC(=S)NNS(=O)(=O)c2ccc3ccccc3c2)c(OC)c1	0.44	-0.28
Cc1cc([N+](=O)[O-])nn1CC(=O)NNC(=S)Nc1ccc(F)cc1	0.35	-2.7
Cc1ccc(O)c(C2=NNC(O)(C(F)(F)F)C2)c1 (configuration not stated)	1.9	0.08
COc1cc(OC)c(C2CC(=O)N3CN(C)CSC3=C2C#N)cc1OC (configuration not stated)	1.3	-0.25

7 entries already listed, arranged by the number in KCNQ2 pot, falling:
SMILES	KCNQ2 pot	KCNQ2 pot baseline
CCN(CC)S(=O)(=O)c1ccc(/C(O)=C(\C#N)c2nc3ccccc3n2C)cc1	2.4	-0.8
CC1(C)C(=O)OC(c2ccco2)C(C)(C)C1=O (configuration not stated)	1.3	-0.02
COc1cccc(C2(O)CCN(C(=O)c3cccs3)CC2)c1	1.2	0.82
CCCn1c(CCc2ccccc2)n[nH]c1=S	0.98	0.57
O=C(CSc1nc(-c2ccco2)cc(C(F)(F)F)n1)NC1CCCCCCC1	0.75	-0.98
COc1ccc2occ(NC(C)=O)c2c1	0.66	1.2
COC(C/C=C/[C@H](O)COCc1ccccc1)OC	0.29	0.63

Only part of the results is shown. The share of hits here may be higher or lower than overall.
